Source: PubChem
StopGo RLuc – FMDV 2A StopGo reporter, Renilla signal; HEK cells with a luciferase reporter of 2A StopGo recoding; Potency, µM (top dose mostly 57.5 µM), without a hit: at the highest dose signal change, negative = less light; hit rate 0.32% among 120,000; AID 1745857; active means well fitted falling curve with a large enough effect; inconclusive means small, poorly fitted or top-dose-only effect; inactive means no such curve, though single readings can be large or run the other way; also: nearly all actives have a fitted effect of over 55% in size; overnight with compound
2A firefly – lowers the firefly signal of an FMDV 2A StopGo reporter. HEK cells with a luciferase reporter of 2A StopGo recoding. Potency, µM (top dose mostly 57.5 µM), for the others: at the highest dose signal change, negative = less light. hit rate 0.23% among 120,000. AID 1745856; active = well fitted falling curve with a large enough effect; inconclusive = small, poorly fitted or top-dose-only effect; inactive = no such curve, though single readings can be large or run the other way; also: nearly all actives have a fitted effect of over 60% in size; overnight with compound
An asterisk follows results filed as active; ? = inconclusive; & = joins results of further samples; [ ] = dose if it differs, or a comment. % is scaled to controls: 0 for no effect and ±100 for the full control effect; potency is read from the fitted curve at half-maximal effect.

Sample of the layout (2 entries):
Every second line gives: StopGo RLuc	2A firefly
CCOC(=O)c1nc(Nc2ccc(C(=O)OC(C)C)cc2)c2ccccc2n1
    0.9%&-7.2%	1.3%&-7.2%
COCCn1c(COc2ccc(C(C)(C)c3ccccc3)cc2)n[nH]c1=S
    -2.9%[1.06 µM]	13.1%

The whole of this part (from the top)
Every second line gives: StopGo RLuc	2A firefly
CCOC(=O)c1nc(Nc2ccc(C(=O)OC(C)C)cc2)c2ccccc2n1
    0.9%&-7.2%	1.3%&-7.2%
COCCn1c(COc2ccc(C(C)(C)c3ccccc3)cc2)n[nH]c1=S
    -2.9%[1.06 µM]	13.1%
COC(=O)c1nc2n(n1)C(c1cccc(Cl)c1)C(C(=O)Nc1ccccc1OC)=C(C)N2 (stereo not drawn)
    27.2%	12.3%
CCc1ccc(CNC(=O)CSCc2cnn(-c3ccccc3)c2-n2cccc2)cc1
    -11.4%	-23.9%
Cc1nn(C)c2c1c(C(F)(F)F)cc(=O)n2C(C)C(=O)NCCc1ccc(Cl)cc1 (stereo not drawn)
    -2.1%	5.1%
COc1ccccc1OCC(=O)Nc1ccc(-c2nc3ccccc3o2)cc1
    7.1%	113.8%[activator]
CCCCc1nc2sc3c(NCCO)ncnc3c2c2c1CCC2
    17.1%	16.0%
CCNC(=O)CN1CCN(C(=O)CCc2ncc(-c3ccc(Cl)cc3)o2)CC1
    -3.8%	83.2%[activator]
CCc1ccc(NC(=O)[C@H](Cc2ccccc2)N2Cc3ccccc3C2=O)cc1
    0.4%	?
COC(=O)c1ccccc1NC(=O)CSc1nc2nc(C)cc(C)n2n1
    -6.1%	0.7%
Cc1ccc(NC(=O)c2oc3ccccc3c2NC(=O)c2cc(=O)c3ccccc3o2)cc1
    -8.4%	14.1%
NS(=O)(=O)c1ccc(N/N=C/c2cccc(C(F)(F)F)c2)c([N+](=O)[O-])c1
    ?	-11.3%
CC(=O)N1CCc2c(sc3c2c(=O)n(-c2ccccc2)c(=O)n3Cc2cccc(C(F)(F)F)c2)C1
    -3.0%	5.9%
CCc1c(C)sc(NC(=O)C2c3ccccc3Oc3ccccc32)c1C#N
    -3.5%	-13.3%
CC(=O)Nc1ccc(S(=O)(=O)Nc2nc3ccccc3nc2Nc2ccc(N(C)C)cc2)cc1
    165.4%[activator]	0.0%
Cc1ccccc1CNC(=O)COC(=O)c1cc2ccccc2[nH]1
    3.7%	16.1%
COC(=O)c1ccc(C)c(NC(=O)c2cc(-c3cc(C)sc3C)nc3onc(C)c23)c1
    -10.7%	-10.7%
COc1cc(OC)c(NC(=O)C(CC(C)C)N2Cc3ccccc3C2=O)cc1Cl (stereo not drawn)
    73.4%&100.3%[activator]	-6.7%&-15.3%
CCC(Sc1nnc(-c2ccc(OC)c(OC)c2)c(-c2ccc(OC)c(OC)c2)n1)C(=O)NC1CCCC1 (stereo not drawn)
    77.5%[activator]	61.5%[activator]
COc1ccc(CCC(C)(O)c2cc(-c3ccc(OC)cc3)no2)cc1 (stereo not drawn)
    0.0%	4.2%

Entries of single compounds, looked up by structure.
CCOC(=O)c1nc(Nc2ccc(C(=O)OC(C)C)cc2)c2ccccc2n1 across the screens: StopGo RLuc = 0.9%&-7.2%; 2A firefly = 1.3%&-7.2%
CCc1ccc(CNC(=O)CSCc2cnn(-c3ccccc3)c2-n2cccc2)cc1 across the screens: StopGo RLuc = -11.4%; 2A firefly = -23.9%

Other compounds:
Every second line gives: StopGo RLuc	2A firefly
O=C(NCCCN1CCN(c2ccccc2F)CC1)c1cc2c(s1)-c1ccccc1OC2
    ?	?
Fc1ccc(-c2nc3cc(Cl)ccc3o2)cc1
    15.6%	11.1%
Cn1c(N)c(-c2csc(NC3CC3)n2)c(=O)n(C)c1=O
    -3.7%	2.6%
COc1ccc(-n2nc3ccc(NC(=O)c4ccccc4Br)cc3n2)cc1
    8.7%	149.3%[activator]
CC(C)NC(=O)C1CC(c2c(F)cccc2Cl)=NO1 (stereo not drawn)
    13.1%	0.0%
O=C(O)/C=C/c1c(F)cccc1Cl
    7.5%	17.0%
CC(NCc1cccc(C#N)c1)c1ccc(Cl)cc1Cl (stereo not drawn)
    4.6%	-0.7%
O=C(Nc1ccc(Br)cc1)c1ccc(F)c(S(=O)(=O)N2CCc3ccccc32)c1
    ?	11.2µM*
CCN(c1ccccc1)c1nnc(NC(=O)Nc2cccc(C(F)(F)F)c2)s1
    -0.7%	-13.4%
COc1ccc(N2CCN(C(=O)Nc3ccc(Cl)cc3)CC2)cc1
    ?	?
Cc1cc(=O)c(C(=O)N2CCN(S(=O)(=O)c3ccccc3C#N)CC2)nn1-c1ccccc1F
    ?	13.3%
O=C(O)C1CCC1
    -7.9%	-12.9%
CCOc1ccccc1NC(=O)CSc1nc2c(oc3ccccc32)c(=O)n1-c1ccc(F)cc1
    -4.9%	-12.8%
Cc1cc(C)c(NC(=O)CNC(=O)c2cc3ccc(F)cc3nc2C)c(C)c1
    ?	-28.4%
Cc1ccc(S(=O)(=O)N(Cc2cc3ccc(C)cc3[nH]c2=O)CC2CCCO2)cc1 (stereo not drawn)
    182.0%[activator]	1.4%
CC(C)CCC(C)NC(=O)c1nccnc1N (stereo not drawn)
    1.6%	66.3%[activator]
CCC(C)NC(=O)CSc1ncnc2ccccc12 (stereo not drawn)
    -19.8%	-1.9%
CC(C)c1ccc(NC(=O)c2ccc(CN3CC(=O)N4CCCCC4C3=O)cc2)cc1 (stereo not drawn)
    ?	-21.5%
Cc1ccc(Cn2ccn(CC(=O)Nc3ccccc3C(F)(F)F)c(=O)c2=O)cc1
    6.1%	9.5%
Cc1cccc(C)c1-n1ncc(C(=O)NCc2ccc3c(c2)OCO3)c1C1CCN(C(=O)OC(C)(C)C)CC1
    -8.8%	-17.3%
CCOc1ccc(CN(C)CC(=O)Nc2ccc(Cl)c(Cl)c2)cc1OC
    ?	?
O=C(Nc1nnc(C2CC2)s1)c1ccc(Cl)c(S(=O)(=O)N2CCCC2)c1
    ?	?
Cc1cccc(-c2nc(SCC(=O)Nc3cc(C)on3)c3c(=O)n(C)c(=O)n(C)c3n2)c1
    7.8%	-6.4%
CCN(CC)CCNC(=O)c1ccc(CS(=O)(=O)c2ccccc2C)o1
    -2.9%	-2.1%
CC1=C(C(=O)Nc2ccccc2)C(c2ccccc2F)N=C(Nc2nc3ccccc3o2)N1 (stereo not drawn)
    -3.0%	5.1%
CCc1cccc(NC(=O)CSc2nnc(-c3cc4occc4n3C)n2-c2ccccc2C)c1
    -8.2%	-15.7%
CCCCc1nc2ccccc2n2c(-c3ccc(OC)cc3)c3c(=O)n(C)c(=O)n(C)c3c12
    -7.7%	-10.9%
COc1ccc(-c2nnc3sc(-c4ccccc4C)nn23)cc1OC
    42.4%[activator]	0.0%
CN(C1CCCCC1)S(=O)(=O)N1CCN(C(=O)Cc2ccc(Cl)cc2Cl)CC1
    ?	?
O=C(NCc1ccc(F)cc1)c1nn(-c2ccccc2)c2c1CCC2
    18.4%	1.5%
COc1cccc(NC(=O)CCC(=O)N2Cc3ccccc3Oc3ncccc32)c1
    -17.7%	-15.1%
O=C(CSc1ncc(CO)n1Cc1ccc(F)cc1)NCc1ccco1
    -4.7%&-15.2%	-1.6%&-21.1%
CC(Oc1ccc(C#N)cc1)C(=O)NOCc1ccccc1 (stereo not drawn)
    -2.9%	7.4%
Cc1ccc(NC(=O)CSc2ncnc3ccccc23)c(C)c1
    -16.5%	8.9%
C=CCNC(=O)NC(=O)CN(C)Cc1cccc(C#N)c1
    2.1%	5.3%
CNC(=O)NC(=O)COC(=O)c1cc(-c2ccco2)nc2ccccc12
    -3.3%	-4.5%
CCOC(=O)c1ccc(-c2ccc(/C=C/C(=O)c3ccccc3)o2)cc1
    -6.9%[1.06 µM]	33.9%[activator]
O=C(NC(NC(=O)c1ccccc1)c1ccc(Cl)cc1)c1ccccc1
    0.0%	6.0%
O=C(Nc1cccc(C(F)(F)F)c1)c1cccc(NC(=O)c2cc(=O)c3ccccc3o2)c1
    0.5%	33.9%[activator]
CC(C)(O)c1ccccc1CC[C@@H](SCC1(CC(=O)O)CC1)c1cccc(/C=C/c2ccc3ccc(Cl)cc3n2)c1
    4.4%	-6.7%[11.5 µM]

Another view of two compounds above.
molecule	StopGo RLuc	2A firefly
C=CCNC(=O)NC(=O)CN(C)Cc1cccc(C#N)c1	2.1%	5.3%
COc1cccc(NC(=O)CCC(=O)N2Cc3ccccc3Oc3ncccc32)c1	-17.7%	-15.1%

The listing continues.
Every second line gives: StopGo RLuc	2A firefly
Cc1nn(-c2ccc(=O)[nH]n2)c2c1C(c1ccc(-c3ccc(F)cc3)o1)CC(=O)N2 (stereo not drawn)
    -7.4%	21.2%
Cc1cccc(C)c1NC(=O)COC(=O)COc1ccc2c(C)cc(=O)oc2c1
    8.9%	23.7%
CCn1c(SCC(=O)Nc2ccc(F)cc2C)nnc1C(C)NC(=O)c1ccco1 (stereo not drawn)
    -13.1%	-5.0%
CN(C)S(=O)(=O)c1ccc(C(=O)N2CCCc3ccccc32)cc1
    -2.7%	-1.8%
CNC(=O)c1ccc(CN(c2nc3ccccc3o2)C2CC2)cc1
    -10.0%	0.0%
CCN(CC)CCCNC(=O)C1CCN(c2ncnc3nc[nH]c23)CC1
    -5.8%	-4.9%
CCCCn1c(=O)[nH]c(=O)c2[nH]c(-c3ccc(C#N)cc3)nc21
    2.5%	8.6%
Cc1ccc2c(CSc3nnc4ccccn34)cc(=O)oc2c1C
    10.6%	113.2%[activator]
CC(C)Cn1cc(NC(=O)NCc2ccccc2Cl)c2ccccc2c1=O
    8.2%	1.5%
COc1ccc(C(=O)OCCN(C)C2CN(Cc3cn(Cc4cccc(F)c4)nn3)S(=O)(=O)C2)cc1OC (stereo not drawn)
    17.4%	77.1%[activator]
COc1ccc(-c2noc(CNC(=O)COc3cc(C)cc(C)c3C)n2)cc1
    2.9%	-5.1%
CSc1ccc(C(C)NC(=O)Cc2ccccc2C)cc1 (stereo not drawn)
    23.0%	0.5%
Cc1cnc(C(=O)OCc2ccc(Cl)cc2)cn1
    2.6%	-10.8%
COc1ccc(C(=O)Oc2ccccc2Cl)cc1I
    8.2%	16.0%
CCN1CC(C)C(=O)CC1C (stereo not drawn)
    3.0%	14.3%
CC(C)(C)CNC(=O)c1nc[nH]c1C(=O)N1CCCC1
    8.4%	20.7%
Cc1cc2c(c(=O)n1Cc1ccco1)C(Cc1ccccc1)C(C#N)=C(N)O2 (stereo not drawn)
    20.7%	13.0%
CC1(C(=O)Nc2nc(-c3c[nH]c4ccccc34)cs2)CC1(Cl)Cl (stereo not drawn)
    ?	-13.9%
COc1ccccc1NC(=O)CCc1c[nH]c2ccccc12
    -10.1%	42.6%[activator]
Cc1cc(C(=O)NC2CC2)c2cc(Br)ccc2n1
    -2.4%	-2.2%
CCCCc1ccc(NC(=O)Cn2cnc3c2c(=O)n(C)c(=O)n3C)cc1
    -7.3%&8.3%	-8.1%&16.6%
COc1cccc(NC(=O)CSc2nc3c([nH]c4ccccc43)c(=O)n2-c2ccccc2)c1
    1.9%	-19.8%
CC(C)(C)n1nnnc1SCc1coc(-c2ccccc2)n1
    11.0%	87.1%[activator]
FC(F)(F)c1cccc(N2CCN(C(c3ccc(Br)cc3)c3nnc(-c4ccccc4)o3)CC2)c1 (stereo not drawn)
    ?	-25.9%
Cc1nc(SCC(=O)Nc2ccc(Br)cc2)[nH]c(=O)c1Cc1ccccc1
    -7.7%	-0.9%
CC(=O)Oc1ccc2c(=O)c(-c3ccc4c(c3)OCCO4)c(C)oc2c1C
    12.7%	142.6%[activator]
O=C(NC1CCCC1)c1cc(Nc2cccc(C(F)(F)F)c2)nc2ccccc12
    17.3%	-0.9%
COc1ccccc1-n1cnnc1SCC(=O)c1ccc2c(c1)CCC2
    28.7%	33.4%[activator]
Nc1nccnc1C(=O)NCCSCc1ccsc1
    8.5%	0.0%
COCCN(C(=O)c1cc2c(s1)CCC(C)C2)c1c(N)n(CC(C)C)c(=O)[nH]c1=O (stereo not drawn)
    4.4%	17.0%
COc1ccc(-c2csc3ncnc(N4CCN(Cc5ccccc5)CC4)c23)cc1
    -6.9%	14.8%
COc1cc(CN2CCN(C(=O)COc3ccc4ccccc4c3)CC2)cc(OC)c1O
    -5.9%	0.0%
CCOC(=O)c1cccc(NC(=O)c2cc3cc4ccc(C)cc4nc3o2)c1
    0.1%	5.1%
Cc1cc(OS(C)(=O)=O)cc2c1C(=O)/C(=C/c1ccccc1F)O2
    0.0%	199.0%[activator]
CCSc1nc2n(n1)C(c1cccs1)C1=C(CC(C)(C)CC1=O)N2 (stereo not drawn)
    19.3%	10.4%
CCOCCCNC(=O)c1cc(-c2cccs2)nc2ccccc12
    30.7%[activator]	20.6%
Cc1ccc(-n2ncc3c2NC(=O)CC32C(=O)Nc3ccccc32)c(C)c1 (stereo not drawn)
    -2.6%	-1.7%
O=S(=O)(c1ccccc1F)N1CCN(Cc2coc(-c3cccs3)n2)CC1
    ?	?
Cc1ccc(/C(C#N)=C\c2cccn2C)cc1
    54.3%[activator]	170.7%[activator]
CCC1CCCCN1C(=O)CN1CCCN(Cc2ccccc2)S1(=O)=O (stereo not drawn)
    25.3%	3.2%
O=C(COc1ccc2ccc(=O)oc2c1)NC1CCN(Cc2ccccc2)CC1
    -3.0%	-0.4%
CCc1ccc(Nc2nc(N)nc(CSc3nc4ccccc4s3)n2)cc1
    22.6%	0.7%
Cc1sc2c(c1C)C(c1ccc(F)cc1)=NCC(=O)N2CC(=O)Nc1ccccc1
    74.3%[activator]	-10.4%
